# Assay outcomes as filed in PubChem.
# UCH37 inh: inhibitors of human UCH37 deubiquitinase, primary screen, biochemical, Ub-AMC cleavage, fluorescence. Ubiquitin carboxyl-terminal hydrolase isozyme L5 (Homo sapiens), Q9Y5K5. purified proteasome/UCH37. inhibition, % (test concentration not listed). hit rate 0.33% among 330,000;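 active means mean of two replicates above 20%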;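 further: 0% = compound-free wells with enzyme and 100% = wells lacking proteasome; stock transfer was 100 nL into about 20 µL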
# Target sequence (Q9Y5K5 whole entry, looked up): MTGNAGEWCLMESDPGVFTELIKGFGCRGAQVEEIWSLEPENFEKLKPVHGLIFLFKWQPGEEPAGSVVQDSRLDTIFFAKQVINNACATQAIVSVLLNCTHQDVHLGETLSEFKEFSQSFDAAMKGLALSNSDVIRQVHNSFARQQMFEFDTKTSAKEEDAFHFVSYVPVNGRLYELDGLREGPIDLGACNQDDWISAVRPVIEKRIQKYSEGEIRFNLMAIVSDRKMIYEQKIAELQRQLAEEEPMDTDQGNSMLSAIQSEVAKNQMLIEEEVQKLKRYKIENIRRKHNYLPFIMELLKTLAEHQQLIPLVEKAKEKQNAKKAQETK
#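 Material: human UCH37 enzyme supplied as purified proteasome complex. Measure: % inhibition of Ub-AMC cleavage fluorescence. Medium: pH 7.4 Tris-HCl (50 mM) with ovalbumin, ATP-MgCl2, DTT. Times: 30 min preincubation with enzyme, 25 min cleavage at room temperature. Detection: AMC fluorescence intensity at 355/460 nm.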
# A1 inh: caspase 3/7 activation in MEF A1-2A-BIM cells, primary screen, A1 inhibitor project, cell-based, luminescence, HTS. Caspase-Glo 3/7 luminescence, 3 h; percent of clofoctol response, vehicle zero. caspase activation, % (concentration not given with the values). hit rate 0.066% among 330,000;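 active means over half of replicate activation scores above 10%, or exactly half above 10 with the replicate mean above 10; inconclusive means replicate mean below 10 yet half the replicates above 10; inactive means over half of replicates below 10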;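 further: wells of about 30 µL received 50 nL stock; many hits fall short of the cut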
# Ecoli growth: E. coli growth inhibition, primary screen, OD600; Escherichia coli growth, 23 h; stronger effect = lower value; OD600 absorbance (concentration not given with the values); hit rate 0.21% among 330,000; AID 1053175, 2014;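 active means OD600 absorbance below the run mean of sample wells minus 3.6 SD, in any replicate, cut at about 0.56 in these data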;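 further: stock transfer was 300 nL into about 60 µL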
# Beta2AR agonist: beta2AR agonists driving receptor internalization, primary screen, cell-based, FAP fluorogen, flow cytometry. Beta-2 adrenergic receptor (Homo sapiens), P07550. Am2.2-beta2AR cells; reference of the scale not given here. response, % (concentration not given with the values). hit rate 0.43% among 340,000. AID 504454, 2011;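 active means response above a set limit, near 3 SD of response in nonfluorescent compounds, cut at about 42% in these data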;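 further: stock transfer was 100 nL into about 11 µL; a reference agonist was the positive control; negative values mostly stem from fluorescent compounds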
# Target sequence (P07550 whole entry, looked up): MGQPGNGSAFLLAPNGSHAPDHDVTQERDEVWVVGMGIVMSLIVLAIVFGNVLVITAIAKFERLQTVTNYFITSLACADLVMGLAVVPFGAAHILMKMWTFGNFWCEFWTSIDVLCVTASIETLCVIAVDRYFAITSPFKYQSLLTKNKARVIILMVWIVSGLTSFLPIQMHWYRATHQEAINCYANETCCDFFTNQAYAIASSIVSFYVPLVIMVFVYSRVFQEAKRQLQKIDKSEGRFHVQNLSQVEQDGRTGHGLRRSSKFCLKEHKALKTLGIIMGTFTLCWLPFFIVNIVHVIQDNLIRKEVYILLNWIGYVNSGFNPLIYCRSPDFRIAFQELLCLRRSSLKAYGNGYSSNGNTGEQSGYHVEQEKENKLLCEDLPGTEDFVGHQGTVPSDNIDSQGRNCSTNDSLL
# LANA-H2B inh: blockers of LANA interaction with H2A/H2B – biochemical, FP readout, HTS, primary screen. Protein LANA1 (Human herpesvirus 8 type P (isolate GK18)), Q9QR71. cell-free LANA-H2A/H2B peptide, fluorescence polarization. inhibition, % (concentration not given with the values). hit rate 0.6% among 320,000; in the data active means inhibition mostly above about 10%, no sharp cut-off; inactive means mostly below about 6.7%;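 further: stock transfer was 7.5 nL into about 10 µL; 0% = median of vehicle wells and 100% = median of positive control wells; one replicate is shown; the record names a cut of 25% in any replicate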
# Vif A3G: inhibitors of Vif binding to APOBEC3G peptide, primary screen, biochemical, TR-FRET, GST-Vif 1-94, biotin-A3G peptide, dose response retest (AID 1117319) | inhibition, %, or IC50 in µM where a hit was titrated | TR-FRET GST-Vif / biotin-A3G peptide binding; higher % means a stronger effect; test concentration not given here; strong numbers were not always called active | hit rate 0.57% among 260,000 | Virion infectivity factor (Human immunodeficiency virus type 1 group M subtype B (isolate …;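 active means above the screen mean plus three standard deviations and confirmed in dose response; inconclusive means results disagree or hit not tested in dose response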;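 further: Vif residues 1-94 fused to GST binding biotinylated APOBEC3G peptide 110-148; 0% = full assay without inhibitor and 100% = GST in place of GST-Vif; retest series ran down from 100 µM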
# HNF4A DNA FP: change in binding of human HNF4A to DNA, primary screen, biochemical, fluorescence polarization, FITC-DNA; activity change, % at 10 µM; Hepatocyte nuclear factor 4-alpha (Homo sapiens), P41235; hit rate 0.3% among 360,000; 1 h; AID 1224865, 2016; in the data active means activity change above about 30%, passing the limit was not always enough;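 further: controls were the assay level and a saturating level of protein; the project sought stronger binding though the title names inhibitors; some compounds called inactive have numbers as strong as hits; positive values seem to mean higher polarization but the record does not say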
# * = called active by the depositor; ? = inconclusive; . = no result given.
Molecule,UCH37 inh,A1 inh,Ecoli growth,Beta2AR agonist,LANA-H2B inh,Vif A3G,HNF4A DNA FP
Fc1cccc(Cl)c1C1Nc2cccc3cccc(c23)N1,8.8,-0.4,0.71,18,-0.5,.,6.7
Clc1cccc(OCCCN2CCCC2)c1Cl,4.9,0.4,0.69,3,3.4,-7%,4.3
O=C(CC1SC(=O)N(c2ccccc2)C1=O)Nc1ccccc1 (stereo not drawn),9.0,-0.6,0.63,5,1.0,7%,2.2
COc1ccc(C2=CC(c3ccc(OC)c(OC)c3)NC(=S)N2)cc1 (stereo not drawn),-13,1.1,0.73,-4,0.4,-1%,13
c1ccc2c(c1)OCC(c1nnc3sc(-c4cnccn4)nn13)O2 (stereo not drawn),5.2,0.1,0.75,-11,1.0,9%,0.2
CN(C(=O)CC1C(=O)NCCN1C/C=C/c1ccccc1)C1CCOCC1 (stereo not drawn),1.7,0.4,0.69,29,-1.9,.,1.1
CCCCCC(=O)N1CCCCC1,-5.0,-0.1,0.67,-7,2.0,2%,2.8
c1ccc(CCn2nnnc2C(c2cccnc2)N2CCN(c3nc4ccccc4s3)CC2)cc1 (stereo not drawn),3.5,-0.2,0.69,-4,-6.3,23%,3.3
O=C(COC(=O)c1cccnc1Cl)c1cccc(Cl)c1,4.4,0.4,0.72,-2,-1.3,-2%,-0.8
Cc1c(Cc2ccccc2)c(=O)oc2c(C)c(OCc3nn[nH]n3)ccc12,-183,?,0.77,1,-2.6,-7%,-0.9
Cc1cc(NS(=O)(=O)c2ccc(Cl)cc2)nn1CC(=O)NCc1ccco1,0.9,0.0,0.78,-24,1.3,7%,1.9
Cc1cc2c(ccc3c2no[n+]3[O-])nn1,-0.9,1.3,0.68,0,-0.3,7%,1.6
Cn1nc(C(F)(F)F)c(C(=O)Nc2ccc(F)cc2F)c1Oc1cccc(Cl)c1,5.5,-0.5,0.71,-23,-0.7,2%,-5.7
CC(NC(=O)c1ccccc1Cl)C(=O)Nc1ccc2c(c1)OCO2 (stereo not drawn),3.3,.,0.69,1,.,4%,3.1
CC(C)CC1Nc2ncnc(N3CCCCC3)c2N(Cc2ccccc2)C1=O (stereo not drawn),1.2,0.2,.,-2,-6.0,.,6.8
CN(Cc1ccccc1)C(=O)CCS(=O)(=O)c1cc2c(cc1Cl)NC(=O)CO2,3.3,-0.1,0.71,-4,4.1,.,2.7
CCCn1c(SCCN2CCOCC2)nc2c1c(=O)n(C)c(=O)n2C,0.8,0.7,0.68,1,6.4,.,-4.7
O=C1COc2ccc(C(=O)COC(=O)/C=C/c3ccc(Br)o3)cc2N1,.,0.2,.,13,-9.2,.,-33
Cc1ccc(OCCOCCN2CCCCC2)c([N+](=O)[O-])c1,-0.7,1.0,0.71,5,7.2,18%,-1.8
O=C(Nc1ccc(Cl)c(Cl)c1)N1CCSC1c1ccco1 (stereo not drawn),4.7,0.2,0.66,9,0.0,?,-0.9
CCc1nc(Nc2cccc(O)c2)c2oc3ccccc3c2n1,-35,-0.8,0.67,9,0.8,3%,-4.9
Cc1ccc(S(=O)(=O)c2cn(Cc3ccc(F)cc3)c3cc4c(cc3c2=O)OCO4)cc1,-4.3,-0.1,0.74,-4,3.6,.,-0.2
Cc1cccc(Cl)c1NC(=S)NN,-0.1,-0.3,0.69,0,-1.6,1%,-1.3
O=C(O)C1CCCN1S(=O)(=O)c1cccc2nsnc12 (stereo not drawn),3.5,-0.3,0.65,7,-2.4,-3%,-3.6
Cc1cccc(NC(=O)CSc2cn[nH]n2)c1,4.1,-0.2,0.66,4,-0.4,.,-1.7
CN(C)[C@@H](CO)c1nnc([C@H](CC(=O)O)NC(=O)C2CCNCC2)o1,4.0,-0.1,.,-6,5.4,0%,-7.4
CC1CCCC(C)N1C(=O)CSc1nnnn1-c1cccc2c1CCCC2 (stereo not drawn),5.4,-0.7,0.71,-1,-3.1,20%,0.5
COc1ccc(Nc2oc(-c3ccc(OC)cc3)nc2C#N)cc1,-15,0.5,0.68,-8,-3.4,-3%,1.3
COc1cccc(Cl)c1NC(=O)N1CCc2c([nH]c3ccccc23)C1C(F)(F)F (stereo not drawn),6.6,0.0,0.65,2,-2.9,15%,0.6
CC(=O)NCCc1ccc(S(=O)(=O)N2CCCC2)cc1,5.2,0.9,0.7,2,-0.3,-2%,-0.4
CC1CCCN(C(=O)COC(=O)CNS(=O)(=O)c2ccc3ccccc3c2)C1 (stereo not drawn),0.4,-1.6,0.66,-1,-2.7,-3%,0.8
CCOC(=O)N1C(=O)[C@@](c2ccc(Cl)cc2)(C(C)C)N1C(=O)OCC,.,3.8,.,20,4.9,.,7.9
C[C@@H]1ON(C)[C@H]2C[C@H]3c4cc(N5CCOCC5)ccc4CCN3C(=O)[C@@H]12,.,.,.,9,.,-6%,0.5
O=C(Nc1nnc(SCC(=O)N2CCCc3ccccc32)s1)c1cccc2ccccc12,-17,-0.6,0.7,-5,-6.0,24%,5.4
CCN(CC)S(=O)(=O)c1ccc(/C=C/C(=O)Nc2ccc(Br)cc2F)cc1,3.2,1.6,0.72,-3,1.8,.,2.9
CN1CCN(C(=S)NC(CC(=O)c2ccccc2)c2ccccc2)CC1 (stereo not drawn),4.0,0.3,0.7,0,-6.7,2%,0.4
CC1(C)CC(NC(=O)C2CCN(S(=O)(=O)c3ccc(Cl)c(C(F)(F)F)c3)CC2)CC(C)(C)N1,0.5,.,0.63,25,.,.,2.2
O=C1/C(=C/c2ccco2)CCc2ccccc21,-23,-1.6,0.66,-7,-1.3,.,5.1
CCc1nnc(NS(=O)(=O)c2ccc(NCc3cc(Br)ccc3O)cc2)s1,0.0,-0.5,0.63,5,-9.1,2%,-1.9
COc1cc2c(-c3ccc(O)cc3)nc3c(c(C)nn3-c3ccccc3)c2cc1OC,-177,0.6,0.72,14,-347,.,160*
C=CCc1cccc2cc(C(=O)NC(C)(C)C)c(=O)oc12,-7.4,1.3,0.73,-6,-4.5,11%,-2.1
Cc1cccc(CC2CC(=O)N(c3ccc(C)cc3Br)C2=O)c1 (stereo not drawn),6.2,0.7,0.69,-7,26*,.,-0.4
CCCCc1cc(=O)oc2cc(O)cc(O)c12,-148,0.0,0.64,-1,3.6,.,-1.6
Cc1ccc(N2CCN(S(=O)(=O)c3c(C)noc3C)CC2C)cc1 (stereo not drawn),1.8,1.4,0.72,8,-0.4,4%,1.7
COC(=O)CCCC1=CC2=CC(=O)C(C)(OC(=O)CCc3ccccc3)C(=O)C2=CO1 (stereo not drawn),.,0.0,.,8,-1.2,?,23
Cc1c(Cc2ccccc2)sc(NC(=O)Cc2ccccc2)c1C(N)=O,0.2,-3.1,0.76,-2,2.8,.,-0.9
CCCc1cc(=O)[nH]c(SCCOC(=O)c2ccccc2)n1,0.7,-0.3,0.64,-3,-0.5,-1%,0.0
Cc1cc(NC(=O)C2C3C(=O)N(Cc4ccc(Cl)cc4)C(C(=O)NC4CCCCC4)C34C=CC2(C)O4)no1 (stereo not drawn),-3.4,0.0,0.8,3,-7.9,5%,0.3
Cc1ccc(C(=O)Nc2sc(Cc3ccc4c(c3)OCO4)c(C)c2C(N)=O)cc1,-132,-1.0,0.77,1,0.1,22%,0.8
Cc1cc(C)c(C#N)c(OCc2ccc(Cl)nc2)n1,2.5,0.0,0.64,-19,-5.3,2%,2.0
Cc1nc2ccccc2n1C(=O)c1cc(-c2ccc(Br)cc2)nc2ccccc12,2.4,-0.8,0.71,0,3.8,-2%,0.5
O=C(NC1CC1)C1CC(=O)N(c2cccc(Cl)c2)C1 (stereo not drawn),0.2,0.5,0.69,13,9.2,-3%,-0.3
CCCCNCc1cc(Br)c(OCC(=O)NCc2ccccc2)c(OC)c1,6.9,-0.1,0.68,-10,-2.7,?,-2.4
Cc1cccc(NC(=O)CSc2nnc(-c3cc(C)[nH]n3)n2N)c1,2.3,1.1,0.66,4,4.0,.,0.6
O=C(Nc1ccn(Cc2ccccc2F)n1)c1ccc(COc2cc(Cl)ccc2Cl)o1,3.5,-1.3,0.77,-10,-1.1,-2%,3.3
N#Cc1c(-c2ccccc2)cc(-c2ccccc2)nc1Br,-4.0,0.1,0.67,-9,1.4,-56%,3.2
COc1ccc(CN2C(=NC(=O)C3CC3)SC3CS(=O)(=O)CC32)cc1OC (stereo not drawn),3.6,1.2,0.69,1,5.9,7%,0.5
COC(=O)c1ccc(COc2cc([N+](=O)[O-])cc3cccnc23)cc1,5.5,-1.2,0.69,.,4.1,-4%,.
CCOc1ccc(NC(=S)/C(=C(\[O-])c2ccc(C)c([N+](=O)[O-])c2)[n+]2ccccc2)cc1,5.4,0.6,0.77,18,-5.8,>100µM*,1.6
COC(=O)c1ccc(COC(=O)CCc2nc(-c3ccccc3)c(-c3ccccc3)o2)cc1,2.6,-0.4,0.68,13,-0.6,-3%,-1.8

# The listing continues:
Molecule,UCH37 inh,A1 inh,Ecoli growth,Beta2AR agonist,LANA-H2B inh,Vif A3G,HNF4A DNA FP
Cc1onc(-c2ccccc2)c1C(=O)OCC(=O)Nc1cccc(Cl)c1,-0.3,0.6,0.64,-2,1.7,1%,-1.2
COc1cccc(/C=C/C(=O)OCC(=O)Nc2nnc(-c3ccccc3)o2)c1OC,-14,.,0.65,-1,.,-2%,0.2
O=C1NC(=O)/C(=C/c2ccc(N3CCOCC3)o2)N1,4.8,0.2,0.66,1,0.6,12%,28
O=C(CSc1nnc(COc2ccccc2Cl)o1)NC(=O)NC1CCCC1,5.0,-0.4,0.67,2,4.8,-2%,1.0
C/C(=C\C(=O)Nc1nccs1)c1ccccc1,1.2,-5.6,0.64,-6,-0.7,-4%,-3.2
Cc1nc2ccccc2n1CC(=O)NCCN1CCOCC1,-2.2,0.4,0.65,-5,4.7,-8%,-0.7
COc1ccccc1NC(=O)c1ccc(S(=O)(=O)N2CCC(C)CC2)cc1,3.0,-0.2,0.64,4,-2.5,.,-4.8
COc1cc(OC)cc(C(=O)NNC(=O)c2ccccc2Br)c1,3.2,-1.0,0.68,-1,.,>100µM*,-3.9

# Single records, as listed above. Order of screens: UCH37 inh | A1 inh | Ecoli growth | Beta2AR agonist | LANA-H2B inh | Vif A3G | HNF4A DNA FP
# `C/C(=C\C(=O)Nc1nccs1)c1ccccc1` is listed with 1.2 | -5.6 | 0.64 | -6 | -0.7 | -4% | -3.2
# `COc1cccc(/C=C/C(=O)OCC(=O)Nc2nnc(-c3ccccc3)o2)c1OC` is listed with -14 | . | 0.65 | -1 | . | -2% | 0.2
# `COc1cc(OC)cc(C(=O)NNC(=O)c2ccccc2Br)c1` is listed with 3.2 | -1.0 | 0.68 | -1 | . | >100µM* | -3.9
